# Source: PubChem (National Center for Advancing Translational Sciences (NCATS))
# HttQ103 aggreg = reduces HttQ103-GFP aggregates in PC12 cells; PC12 HttQ103-GFP aggregates, Acumen cytometry, 40 h; Potency, µM (series often up to 46.1 µM), for inactives: at the highest dose activity change, negative = inhibition, most hits filed as inhibitors; hit rate 1.1% among 220,000; also: % is scaled to controls: 0 for no effect and ±100 for the full control effect; nearly all actives have a fitted effect of over 60% in size
#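 Multiplexed with ATP-based cell death, this channel scores GFP aggregates in PC12 cells expressing inducible HTTex1-Q103-GFP. Induction used 100 nM tebufenozide; compounds were tested in concentration series.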
# HTT ATP protect = Huntington cell model cytoprotection by ATP luminescence; PC12 HTT-Q103 induced, cytoprotection, ATP luminescence, 40 h; Potency, µM (series often up to 56.4 µM), for inactives: cytoprotection (ATP increase), hits mostly activators; hit rate 0.14% among 230,000;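 also: % of control where 0% means no effect; nearly all actives have a fitted effect of over 45% in size; toxic huntingtin expression switched on by the ecdysone agonist tebufenozide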
#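 Readout: ATPlite luminescence (ATP level). Model: stable PC12, inducible Htt exon1 Q103-GFP. Inducer: tebufenozide, 100 nM final. Compounds: dose series. No G418 in medium.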
# KinaseGlo FLuc = counter-screen: inhibitors of Kinase-Glo firefly luciferase | Q27757 | Kinase-Glo luciferase, ATP luminescence, 8 min | Potency, µM (top dose mostly 38.3 µM), inactives show top-dose activity change, negative = inhibition, actives largely listed as inhibitors | hit rate 0.28% among 200,000 | AID 1379; also: % is scaled to controls: 0 for no effect and ±100 for the full control effect; nearly all actives have a fitted effect of over 60% in size
#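 Compound is pinned into ATP-containing buffer (10 uM ATP, imidazole pH 7.2, 7 mM MgCl2). Kinase-Glo luciferase reagent is then added. Light output is recorded following an 8-min room-temperature incubation.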
# LMNA splice mod = LMNA splicing modulation; Potency, µM (titrated, usually from 46.1 µM), for inactives: at the highest dose ratio change, negative = inhibition, hits mostly inhibitors; HeLa LMNA splicing GFP/RFP minigene ratio, 48 h; hit rate 0.01% among 200,000; active = well fitted inhibition curve with a large enough effect in the signal ratio, with a control signal flat, not every such curve was filed as active; inconclusive = small, poorly fitted or top-dose-only effect, or effect the other way, or a change in a side signal; the % refers to the signal ratio; also: % is scaled to controls: 0 for no effect and ±100 for the full control effect
#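 S3 HeLa cells stably expressing lamin A-EGFP splicing minigene plus DsRed2, 600 cells/well, 48 h compound exposure at 37C. Laser-scanning cytometry; analysed as GFP (500-530 nm)/RFP (575-640 nm) total intensity ratio; 0.5% DMSO vehicle.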
# SMN2 splice enh = enhancers of SMN2 splice variant expression | hit rate 2.8% among 210,000 | HEK293 SMN2-luciferase splicing reporter, luminescence, 30-36 h | AID 1458 | Potency, µM (titrated, usually from 46.1 µM), for inactives: at the highest dose activity change, positive = activation, actives largely listed as activators; also: % of control where 0% means no effect; nearly all actives have a fitted effect of over 55% in size
#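 HEK293 cells carry an SMN2 […]–luciferase reporter in which exon 7 inclusion puts luciferase in frame. Cells were plated 10-12 h before compound addition, then incubated 30-36 h at 37C. ONE-Glo luminescence was read; sodium butyrate at 4.5 mM final served as control.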
# Numbers without * were called inactive; ? = inconclusive; . = no result given; [ ] = remark or other dose. Unless noted, calls follow the shape of the dose curve; as a rule, active = well fitted curve in the direction sought with a large enough effect; inconclusive = small, poorly fitted or top-dose-only effect, or another doubt; inactive = no such curve, though single readings can be large; an effect the other way counts as inactive or inconclusive. Potency is read from the fitted curve at half-maximal effect.
no.	smiles	HttQ103 aggreg	SMN2 splice enh	KinaseGlo FLuc	HTT ATP protect	LMNA splice mod
1	COc1ccc(OCC(=O)NNC(=O)c2ccccn2)cc1	-15%	12%	0%	13%	14%[0.0737 µM]
2	CS(=O)(=O)n1nc(-c2ccccc2)nc1N	-20%	3%	0%	7%	9%
3	CCCC(C)CO (centres undefined)	.	-4%	.	0%	.
4	Nc1c(-c2ccccc2)c(CN2CCOCC2)nn1-c1ccc(F)cc1	9%	8%	5%	1%[10 µM]	-8%
5	COc1ccc(/C=C2\N=C(SC)SC2=O)cc1OC	-19%	2%	5%	24%	-3%
6	COc1ccccc1N1CCN(CCCCNC(=O)c2ccc3ccccc3c2)CC1	.	-9%	-1%	-101%[inhibitor][17.1 µM]	?
7	CCN(C(=O)CSc1nnc(Cc2cccc3ccccc23)n1N)C1CCS(=O)(=O)C1 (centres undefined)	3%	-5%	-1%	12%	?
8	CC(/C=N/NC(=O)c1n[nH]c2c1CCC2)=C\c1ccccc1	?	?	-2%	-97%[inhibitor]	?
9	Cc1ccc(-c2cc(C(=O)N3N=C(C(F)F)CC3(O)C(F)F)c3ccccc3n2)cc1C (centres undefined)	?	8%	0%	-49%[inhibitor]	?
10	CC(=O)Nc1ccc(S(=O)(=O)NCCN2CCOCC2)cc1	4%	-1%	2%	1%	4%
11	COC(=O)c1ccc(CNC(=O)CSc2nc3sc(C)c(C)c3c(=O)n2C)o1	6%	25%	-1%	12%	-2%
12	Cc1ccc(Cn2c(SCC(=O)NCC3CCCO3)nc3c(sc4ccccc43)c2=O)cc1 (centres undefined)	24%[1.84 µM]	3%	5%	10%	12%
13	FC(F)(F)c1cc(-c2ccccc2)nc(N2CCOCC2)n1	-19%	-19%	-3%	-2%	-5%
14	CC(C)CN(C(=O)COC(=O)c1cc2ccccc2oc1=O)C1CCS(=O)(=O)C1 (centres undefined)	19%[9.22 µM]	-9%	-2%	-23%	2%
15	O=C(Cn1cncn1)NCc1ccccc1Br	5%	-4%	2%	-27%	10%
16	O=C(CCSCCc1ccncc1)NCCCN1CCOCC1	13%	0%	-7%	10%	6%
17	CCN(CC)c1ccc2cc(C(C)=O)c(=O)oc2c1	-2%	4%	-3%	-20%	6%
18	c1cc(-c2ccncc2)ccn1	-26%	0%	-3%	.	?
19	Nc1ccc(Sc2ccccc2CC(=O)O)cc1	9%	17%	1%	-18%	1%
20	CCN(CC)S(=O)(=O)c1cccc(C(=O)Nc2ccc(Cl)cn2)c1	-18%	-49%[inhibitor]	0%	-18%	?
21	O=C(Cn1cccc1)NCc1cccs1	21%	-10%	0%	4%	12%
22	CCOc1cc(C2C(C(=O)OC(C)C)=C(C)N=C3SCCC(=O)N32)ccc1OC(C)=O (centres undefined)	-5%	-9%	-3%	10%[10 µM]	-7%
23	CCN(CC)CCOC(=O)C(Cc1cccc2ccccc12)CC1CCCO1 (centres undefined)	.	-1%	-1%	-49%[inhibitor]	.
24	Clc1cc(Cl)c(Cl)c(Cl)c1Cl	.	4%	.	-3%	.
25	CCSc1ncccc1-c1nc2ccccc2[nH]1	2%	?	-6%	6%[10 µM]	3%
26	COc1ccc(Cl)cc1NC(=O)C1CCCN(c2cc(C)nc3ncnn23)C1 (centres undefined)	-17%	-19%	-6%	-34%	?
27	N#Cc1cc2c(nc1SCC(=O)O)CCCC2	3%	24%	-1%	5%	-5%
28	CC(C)(C)C1CCC2(CC1)C(C#N)=C(SCC(=O)Nc1ccccc1)NC(=O)C2C#N (centres undefined)	?	-107%[inhibitor]	-5%	-46%[inhibitor]	?
29	COc1cc(OC)c(OC)cc1CN(C)C(c1ccccc1)c1nnnn1-c1ccccc1C (centres undefined)	13%	-1%	-2%	0%	11%[0.0737 µM]
30	CN(C)C(CNc1nnnn1-c1ccccc1)c1ccco1 (centres undefined)	-16%	-13%	-3%	-7%[1.9 µM]	-3%

# Among those listed so far, these have fluorine.
no.	smiles	HttQ103 aggreg	SMN2 splice enh	KinaseGlo FLuc	HTT ATP protect	LMNA splice mod
4	Nc1c(-c2ccccc2)c(CN2CCOCC2)nn1-c1ccc(F)cc1	9%	8%	5%	1%[10 µM]	-8%
9	Cc1ccc(-c2cc(C(=O)N3N=C(C(F)F)CC3(O)C(F)F)c3ccccc3n2)cc1C (centres undefined)	?	8%	0%	-49%[inhibitor]	?
13	FC(F)(F)c1cc(-c2ccccc2)nc(N2CCOCC2)n1	-19%	-19%	-3%	-2%	-5%

# Later entries.
no.	smiles	HttQ103 aggreg	SMN2 splice enh	KinaseGlo FLuc	HTT ATP protect	LMNA splice mod
31	COC(=O)c1[nH]c2ccc(C)cc2c1NC(=O)CN1CCN(Cc2ccccc2)CC1	4%	-25%	-5%	-38%	-7%
32	CC(C)OC(=O)c1ccc(N)cc1	-7%[9.22 µM]	.	-1%	-2%[10 µM]	19%[46 µM]
33	CC(C)Sc1nc(O)c(Cc2ccccc2)c(=O)[nH]1	?	-7%	-1%	3%	-2%
34	CCOc1ccc(Cl)cc1/C=N/O	-10%	-12%	-1%	-4%	11%
35	CC(C)OCCCn1c(=S)[nH]c2ccc(N3CCOCC3)cc2c1=O	?	-79%[inhibitor]	-4%	-13%[0.074 µM]	?
36	C/C=C(/C)C(=O)OC1C(OC(C)=O)[C@@]2(CO)C(O)C[C@@]3(C)C(=CCC4[C@@]5(C)CCC(OC6OC(C(=O)O)[C@@H](O[C@@H]7OC(CO)C(O)C(O)C7O)C(O)[C@H]6O[C@@H]6OC(CO)C(O)C(O)C6O)[C@](C)(CO)C5CC[C@@]43C)C2CC1(C)C (some centres undefined)	.	9%	0%	-30%	.
37	O=C(CCCn1c(=S)[nH]c2cc3c(cc2c1=O)OCO3)N1CCN(c2ccc(Cl)cc2)CC1	?	-60%[inhibitor]	-2%	-18%[0.074 µM]	?
38	CC12CCC3c4ccc(O)cc4CCC3C1CCC2=O (centres undefined)	.	.	-2%	4%[1.9 µM]	.
39	CC(=O)O[C@]1(C(C)=O)CC[C@@H]2[C@@H]3C=C(C)C4=CC(=O)CC[C@@]4(C)[C@H]3CC[C@]21C	3%[20.6 µM]	1%[20.6 µM]	0%[17.1 µM]	-7%[40.3 µM]	13%

# Another view of 4 compounds above:
(37) O=C(CCCn1c(=S)[nH]c2cc3c(cc2c1=O)OCO3)N1CCN(c2ccc(Cl)cc2)CC1
  HttQ103 aggreg = ?	SMN2 splice enh = -60%[inhibitor]	KinaseGlo FLuc = -2%	HTT ATP protect = -18%[0.074 µM]	LMNA splice mod = ?

(36) C/C=C(/C)C(=O)OC1C(OC(C)=O)[C@@]2(CO)C(O)C[C@@]3(C)C(=CCC4[C@@]5(C)CCC(OC6OC(C(=O)O)[C@@H](O[C@@H]7OC(CO)C(O)C(O)C7O)C(O)[C@H]6O[C@@H]6OC(CO)C(O)C(O)C6O)[C@](C)(CO)C5CC[C@@]43C)C2CC1(C)C (some centres undefined)
  HttQ103 aggreg = .	SMN2 splice enh = 9%	KinaseGlo FLuc = 0%	HTT ATP protect = -30%	LMNA splice mod = .

(34) CCOc1ccc(Cl)cc1/C=N/O
  HttQ103 aggreg = -10%	SMN2 splice enh = -12%	KinaseGlo FLuc = -1%	HTT ATP protect = -4%	LMNA splice mod = 11%

(35) CC(C)OCCCn1c(=S)[nH]c2ccc(N3CCOCC3)cc2c1=O
  HttQ103 aggreg = ?	SMN2 splice enh = -79%[inhibitor]	KinaseGlo FLuc = -4%	HTT ATP protect = -13%[0.074 µM]	LMNA splice mod = ?

# These rows are one share of the data; count on the stated rates, not on these rows.
